RGS16-Gao HTS: modulates binding between human RGS16 and Galphao. bead-based flow cytometry RGS16-Galphao binding, fluorescence; actives lie on both sides. O15492+P09471. 220,000 compounds, 0.38% hits. AID 1441. binding response (% of control), % at 10 µM;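 active = below 25% or above 175%, edge rows of some plates excepted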;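 also: Galphao activated by GDP with aluminum fluoride before binding; 100% = wells without compound and 0% = beads without RGS; some results beyond the cut were filed as inactive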
GALR2 ag: activates the human galanin receptor 2 | GALR2-expressing cells, agonist activation read-out | activation, %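 (tested at 5 µM)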 | 140,000 compounds, 0.48% hits | AID 803;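 active = above mean plus 3 SD of all compounds, about 5% in these data, not always enough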;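 also: 0% = vehicle buffer wells and 100% = reference agonist at full effect; tested in CHO reporter cells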
INS promoter inh: TRM-6 insulin promoter activity inhibition. 130,000 compounds, 0.9% hits. TRM-6 cells (human fetal islet line), insulin promoter-eGFP reporter, imaging; reporter expression induced with tamoxifen. inhibition, % at 2 µM;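 active = inhibition above the mean plus 3 SD, with well images judged a real hit on visual review, cut at about 60% in these data, passing the limit was not always enough; inconclusive = inhibition over the cutoff but images rejected on review; inactive = inhibition not above the cutoff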
HSV replic up: increases HSV replication in cells. maximum fold increase. HSV replication augmentation in cells, fold increase. 220,000 compounds, 0.005% hits. AID 1956;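 active = peak rise of 1.5-fold or more in the series; inconclusive = self-fluorescent or not available for retest; tested in PC3 cells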;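 also: first round at 10 µM; read as green reporter fluorescence; hits show the peak of a series up to 25 µM; 1 = signal of infected wells without compound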
PKD1 inh: blocks activity of human protein kinase D1. Q15139. PKD1 kinase fluorescence polarization assay. inhibition, %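 (about 10 µM by stock and volumes)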. 200,000 compounds, 0.056% hits;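 active = inhibition of 50% or more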;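 also: controls were vehicle for no effect and a reference inhibitor for full effect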
Target sequence (Q15139 whole entry, looked up): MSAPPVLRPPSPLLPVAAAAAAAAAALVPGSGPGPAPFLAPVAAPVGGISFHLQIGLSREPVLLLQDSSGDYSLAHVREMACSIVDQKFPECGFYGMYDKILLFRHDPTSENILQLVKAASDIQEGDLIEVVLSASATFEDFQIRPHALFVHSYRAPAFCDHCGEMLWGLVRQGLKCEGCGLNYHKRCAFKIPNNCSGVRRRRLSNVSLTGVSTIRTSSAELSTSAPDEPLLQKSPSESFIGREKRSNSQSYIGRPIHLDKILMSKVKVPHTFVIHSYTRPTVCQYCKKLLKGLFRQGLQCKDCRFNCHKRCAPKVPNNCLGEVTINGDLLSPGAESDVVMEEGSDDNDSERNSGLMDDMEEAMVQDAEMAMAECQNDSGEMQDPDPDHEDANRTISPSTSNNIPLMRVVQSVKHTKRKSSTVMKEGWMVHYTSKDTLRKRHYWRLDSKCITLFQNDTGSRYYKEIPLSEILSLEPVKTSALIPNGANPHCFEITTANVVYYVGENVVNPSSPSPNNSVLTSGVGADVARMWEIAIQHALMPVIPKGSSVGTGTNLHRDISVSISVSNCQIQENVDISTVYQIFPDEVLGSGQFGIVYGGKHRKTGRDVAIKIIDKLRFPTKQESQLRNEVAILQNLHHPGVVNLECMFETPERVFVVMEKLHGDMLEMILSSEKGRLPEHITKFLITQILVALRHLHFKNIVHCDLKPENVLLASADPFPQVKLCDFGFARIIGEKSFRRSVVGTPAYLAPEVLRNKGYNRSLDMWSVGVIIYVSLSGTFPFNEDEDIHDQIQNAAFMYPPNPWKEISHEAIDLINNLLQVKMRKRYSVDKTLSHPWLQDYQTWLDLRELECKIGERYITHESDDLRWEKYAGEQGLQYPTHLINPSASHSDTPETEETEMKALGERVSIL
INS promoter inh cell count: recorded beside INS promoter inh, whose call it bears; normalized cell count, %; measured here: cell count, toxicity; reference of the scale not given here;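 cells exposed to compound for 48 h; stained nuclei by imaging scaled within each plate; lower means fewer cells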
HSV replic up primary fold: second read-out of HSV replic up, no call of its own (marks repeat the call); fold increase; compound at 10 µM; measured here: primary screen fold increase 10 uM; tested in PC3 cells;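 GFP signal in the first replicate; 1 = infected wells without compound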
* marks the source's active call; other numbers are inactive results; i = inactive; ? = inconclusive; . = not tested or not shown.

canonical_smiles,RGS16-Gao HTS,GALR2 ag,INS promoter inh,INS promoter inh cell count,HSV replic up,HSV replic up primary fold,PKD1 inh
O=C(c1ccc(CN2CCc3ccccc3C2)cc1)N1CCCCC1,90,-1.9,-11,96,i,0.92,-6
Cc1ccc(S(=O)(=O)n2nnc3ccccc32)c(C)c1C,97,.,.,.,i,0.96,3
Cc1cc(Nc2ccccc2)n(C(=O)c2ccc(Cl)cc2)n1,84,-1.3,72,182,i,0.99,10
CC1=C(C(=O)c2ccccc2)C(c2cn(-c3ccccc3)nc2-c2ccc(Cl)cc2)NC(=S)N1 (stereo not given),95,-0.8,24,140,i,0.88,-6
COc1ccc(C(=O)Nc2cc3c(cc2C#N)OCO3)cc1S(=O)(=O)NCc1ccco1,94,-2.3,21,93,i,1,-7
COc1ccc(C2CN=NC23CCCc2ccccc2C3=O)cc1 (stereo not given),101,-0.4,.,.,i,0.52,-9
O=C(NCc1cccs1)c1cc2ccccc2o1,88,-1.1,.,.,i,1,3
COc1ccc(C2c3ccc4ccccc4c3Oc3ncn(CCCO)c(=N)c32)cc1OC (stereo not given),103,.,.,.,i,0.68,.
CCCn1c(CCc2ccccc2)nnc1SCC(=O)N1CCCC1,111,-2.5,-427,68,i,1.1,-3
COC(=O)C1CCN(C(=O)/C=C/c2ccc(OC)cc2)CC1,139,-2.6,23,117,i,0.98,-1
CCOC(=O)c1ccc(-c2nnc(-c3ccc(Cl)cc3Cl)o2)cc1,100,-1.5,-9,125,i,0.96,-8
O=S(=O)(Nn1cnnc1)c1ccc2ccccc2c1,99,.,.,.,i,1,3

More structures follow:
canonical_smiles,RGS16-Gao HTS,GALR2 ag,INS promoter inh,INS promoter inh cell count,HSV replic up,HSV replic up primary fold,PKD1 inh
Cc1ccc(-c2nc(Cl)nc3ccccc23)cc1,96,.,47,93,i,0.87,0
COc1cccc(NC(=O)CNS(=O)(=O)c2ccc3nc(C)sc3c2)c1,99,-0.1,18,89,.,.,-6
Cc1noc(/C=C/N(C)C)c1S(=O)(=O)N(C)CC(=O)NC1CCCCC1,94,-1.5,.,.,.,.,-1
c1ccc2oc(-c3ccc(Nc4nc(N5CCCCC5)nc(N5CCOCC5)n4)cc3)nc2c1,102,-1.4,-9,67,.,.,-6
CCOc1ccc(C(=O)Nc2nnn(CC)n2)cc1,92,-2.4,.,.,i,0.79,-5
COC(=O)c1ccc(/C=N/Nc2nc(-c3ccccc3)cs2)cc1,105,-1.0,19,129,i,0.9,10
CC(c1ccccc1)N1CCc2[nH]c(=S)[nH]c(=O)c2C1 (stereo not given),154,.,91*,60*,i,0.98,-5
COC(=O)c1ccc(COc2ccc(/C=N/N3CCN(C)CC3)cc2)cc1,98,.,.,.,i,0.98,-4
CCOC(=O)C1=C(C)NC(=O)CC1c1cc2c(cc1[N+](=O)[O-])OCO2 (stereo not given),99,.,-8,93,i,0.91,2
COc1ccc(C)cc1NC(=O)c1ccc(CN2CCN(c3ccccc3)CC2)cc1,99,0.0,-7,152,i,0.94,-11
CCOC(=O)COc1nc(Nc2ccccc2C)nc(N(C)C)n1,16,-0.8,-135,162,i,1,-8
COc1ccc(C(=O)C[n+]2ccc3c(c2)nc(-c2cc(OC)c(OC)cc2OC)n3C)cc1,18*,-4.5,23,100,i,1.1,7

Next compounds.
canonical_smiles,RGS16-Gao HTS,GALR2 ag,INS promoter inh,INS promoter inh cell count,HSV replic up,HSV replic up primary fold,PKD1 inh
O=C(NCCN1CCCCC1)Nc1ccccc1,100,0.7,-7,96,i,1.3,-4
Cc1ccc(F)c(NC(=O)c2ccc(Cn3cc(Cl)cn3)cc2)c1,103,.,.,.,i,0.91,-3
CC12CCC(C/C1=N/OC(=O)c1cccc([N+](=O)[O-])c1)C2(C)C (stereo not given),105,.,38,139,i,0.87,8
COc1ccc(NS(=O)(=O)c2ccc(NS(=O)(=O)c3ccc(C)cc3)cc2)nn1,111,-1.5,4,81,i,0.93,1
CC1=CC(C)(C)Nc2ccc(OC(=O)CN3C(=O)C4CCCCC4C3=O)cc21 (stereo not given),92,0.6,-17,138,.,.,-5
CCN(CC)S(=O)(=O)c1cccc(NC(=O)c2cc(=O)[nH]c3ccccc23)c1,124,-0.2,.,.,i,0.75,-11
CCCCc1ccc(NC(=O)N[C@@H](CC(C)C)C(=O)O)cc1,104,.,.,.,i,1.2,.
CCN(CC)c1ccc(/C=C2\SC(=O)N(C(C)C)C2=O)o1,92,.,.,.,?,.,.
CN(C(=O)COc1ccc(Cl)cc1)c1nnc(C23CC4CC(CC(C4)C2)C3)s1,101,.,.,.,i,0.97,-5
Cc1ccc(C)c(S(=O)(=O)N=Nc2c(O)[nH]c3ccccc23)c1,104,.,.,.,i,0.98,3
COc1ccc(N2CCN(C(=O)Cc3coc4cc(C)ccc34)CC2)cc1,99,.,29,133,i,0.86,-6
O=C(N/C(=C/c1cccs1)C(=O)N1CCOCC1)c1cccs1,101,.,24,124,i,1.1,-12

A few values from the results shown:
CN(C(=O)COc1ccc(Cl)cc1)c1nnc(C23CC4CC(CC(C4)C2)C3)s1 in PKD1 inh = -5
COc1ccc(N2CCN(C(=O)Cc3coc4cc(C)ccc34)CC2)cc1 in HSV replic up primary fold = 0.86
Cc1ccc(C)c(S(=O)(=O)N=Nc2c(O)[nH]c3ccccc23)c1 in HSV replic up primary fold = 0.98
O=C(N/C(=C/c1cccs1)C(=O)N1CCOCC1)c1cccs1 in INS promoter inh = 24
CC1=CC(C)(C)Nc2ccc(OC(=O)CN3C(=O)C4CCCCC4C3=O)cc21 (stereo not given) in RGS16-Gao HTS = 92

Further compounds
canonical_smiles,RGS16-Gao HTS,GALR2 ag,INS promoter inh,INS promoter inh cell count,HSV replic up,HSV replic up primary fold,PKD1 inh
CC1=CC(C)(C)N(C(=O)C(C)N2C(=O)c3ccccc3C2=O)c2ccc(C)cc21 (stereo not given),102,-2.6,10,62,i,0.91,-1
O=C(N/N=C/c1ccc([N+](=O)[O-])s1)c1ccccc1Br,92,-1.8,-9,146,i,0.78,0
COCCn1c(SCC(=O)c2ccccc2)nc2c(c1=O)SCC2,106,.,-23,129,i,0.88,2
CC1CCCC(C)N1C(=O)CSc1nnc(-c2cccs2)o1 (stereo not given),105,0.6,-3,150,i,0.95,-6
Cc1ccccc1N(CC(=O)N/N=C/c1cc(C)n(-c2ccccc2C)c1C)S(C)(=O)=O,-222,-1.4,13,105,i,1,-1
COc1ccc(/C=C/C(=O)OCC(=O)Nc2ccc(N3CCOCC3)cc2)cc1OC,100,.,.,.,i,0.96,.
O=[N+]([O-])c1ccc2c(c1Nc1ccccc1)=NC1(CCCCC1)N=2,62,-2.7,-77,96,i,1.1,-12
CCC(=O)N/N=C(\C)CC(=O)Nc1ccc2ccccc2c1,101,-1.4,.,.,i,0.91,6
O=C(/C=C/c1ccco1)NCCCN1CCOCC1,92,.,57,97,i,1.1,4
Cc1ccc(S(=O)(=O)N2CC3(C)CN(S(=O)(=O)c4ccc(C)cc4)CC(C)(C2)C3O)cc1 (stereo not given),78,5.0*,-3,85,i,1.1,-4
CS(=O)(=O)N1CCN(c2ccc(NC(=S)NC(=O)c3ccccc3[N+](=O)[O-])cc2)CC1,95,.,-20,160,i,0.92,0
COc1ccc(/C(C)=N/NS(=O)(=O)c2ccccc2)c(OC)c1,100,.,-11,107,i,1,-2

A different layout for 2 compounds above.
Screens in order: RGS16-Gao HTS | GALR2 ag | INS promoter inh | INS promoter inh cell count | HSV replic up | HSV replic up primary fold | PKD1 inh
COc1cccc(NC(=O)CNS(=O)(=O)c2ccc3nc(C)sc3c2)c1
  99 | -0.1 | 18 | 89 | . | . | -6
COCCn1c(SCC(=O)c2ccccc2)nc2c(c1=O)SCC2
  106 | . | -23 | 129 | i | 0.88 | 2

Further compounds:
canonical_smiles,RGS16-Gao HTS,GALR2 ag,INS promoter inh,INS promoter inh cell count,HSV replic up,HSV replic up primary fold,PKD1 inh
Cc1nc2cc(-c3ccsc3-n3c(C)ccc3C)[nH]n2c(=O)c1Cl,100,-0.4,17,117,i,1.2,-3
CCOC(=O)c1c(-c2ccc(OCC)cc2)csc1NC(=O)CCN1C(=O)c2ccccc2C1=O,100,-0.5,.,.,.,.,-4
CCOc1cc(C#N)c(NC(=O)c2cccnc2Cl)cc1OCC,98,-1.5,3,131,i,0.81,-5
O=C(NNC(=O)c1ccc2c(c1)OCO2)NC12CC3CC(CC(C3)C1)C2,101,-0.5,.,.,i,1.1,-1
Cc1ccc(-c2nn3c(C)nnc3s2)cc1NC(=O)CSc1ccc(Cl)cc1,105,-0.5,19,57,i,1,-3
COc1cc(NC(=S)Nc2cccc(C)n2)cc(OC)c1OC,101,.,.,.,i,0.9,-6
CC(C)OC(=O)c1ccc(COC(=O)c2cccc(-c3nnc(-c4ccccc4)o3)c2)cc1,96,-1.7,.,.,i,0.96,-10
CCCCNC(=O)C1CCCN(S(=O)(=O)c2ccc(S(=O)(=O)NCC(C)C)cc2)C1 (stereo not given),97,-2.9,9,26,i,0.99,3
O=C(Cn1ncc2c(=O)oc3ccccc3c21)NC1CC1,113,-2.8,.,.,i,1,5
NC(=O)c1cccnc1Nc1ccccc1F,97,-1.9,7,133,i,1,2
CCOC(=O)Cc1csc(NC(=O)CSc2nc(C)cc(=O)[nH]2)n1,94,-0.3,.,.,i,1,-16
CCOc1ccccc1NC(=O)Cc1ccccc1OC,98,-2.3,81*,129*,i,0.89,-1

Following part
canonical_smiles,RGS16-Gao HTS,GALR2 ag,INS promoter inh,INS promoter inh cell count,HSV replic up,HSV replic up primary fold,PKD1 inh
CCN(CC(=O)Nc1cccc(S(N)(=O)=O)c1)Cc1nc2ccccc2c(=O)[nH]1,98,.,.,.,i,0.97,.
Oc1c(Br)cc(Br)cc1CNc1ccc(F)cc1,99,.,-38,109,i,1.1,-6
CCCc1nn(C)c2c(=O)[nH]c(-c3ccccc3OCC)nc12,97,-0.9,17,131,i,0.88,-5
Nc1c(C(=O)O)sc2nc(-c3ccccc3)cc(-c3ccc(Cl)cc3)c12,102,.,.,.,i,0.96,.
CCCCC(=O)Nc1ccc(C(=O)N2CCN(c3ccccc3OC)CC2)cc1,105,-2.0,45,100,.,.,-9
S=C(NCc1ccncc1)Nc1ccccc1,99,.,-18,147,i,1.3,6
CCOC(=O)c1c(Cc2cccc(Cl)c2)c[nH]c1C,113,-1.6,.,.,.,.,-9
CCCn1nnnc1NCc1ccc(N2CCCC2)cc1,99,-1.3,-350,55,i,1.1,-5
CON/C=N/C(=S)Nc1ncc(C(F)(F)F)cc1Cl,104,.,.,.,i,0.98,-9
CCOC(=O)C1CCN(C(c2ccc(OC)c(OC)c2)c2sc3nc(C)nn3c2O)CC1 (stereo not given),98,-1.1,29,155,i,0.77,0
CN(CC(=O)Nc1nc2ccccc2s1)S(=O)(=O)c1ccc(Br)cc1,286,-2.5,.,.,i,1,-7
Cc1onc(-c2ccccc2)c1C(=O)Nc1ccon1,97,-2.5,40,114,i,1,-2

Next section:
canonical_smiles,RGS16-Gao HTS,GALR2 ag,INS promoter inh,INS promoter inh cell count,HSV replic up,HSV replic up primary fold,PKD1 inh
CCOC(=O)c1ccc(NC(=O)C2=C(C)Nc3nc(CCCO)nn3C2c2cccc(C)c2)cc1 (stereo not given),104,-1.0,.,.,i,1,9
O=C(COc1ccccc1F)NCC(c1ccco1)N1CCCC1 (stereo not given),101,.,.,.,i,1,8
N#C/C(=C\Nc1ccc2c(c1)OCCO2)c1nc(-c2ccccc2)cs1,106,0.2,4,54,i,0.99,-7
CCCCc1ccc(-c2c(C#N)c(N)nc3c2CCCC3)s1,100,-1.0,4,127,i,0.66,0
CCc1ccc(-c2cc(N)n(-c3ccccc3)n2)cc1,100,.,18,74,i,1,4
O=C(c1cc2cccc([N+](=O)[O-])c2oc1=O)N1CCOCC1,103,.,.,.,i,0.87,.
CCOC(=O)c1sc2nc(COC(=O)c3c(F)cccc3F)[nH]c(=O)c2c1C,98,.,-18,161,i,1.1,-5
CCC(=O)Nc1ccc(Cl)c(NC(=O)c2cccc(OC)c2)c1,106,.,-61,105,i,1,-5

High-throughput results (PubChem)
